Cruzain inh noDet = qHTS Assay for Promiscuous and Specific Inhibitors of Cruzain (without detergent) | Cruzipain (Trypanosoma cruzi), P25779 | purified cruzain, Z-FR-AMC fluorescence, no detergent | Potency, µM, inactives show max response, negative = inhibition, hits mostly inhibitors | actives 2.3% (n = 200,000) | AID 1476, 2009;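 further: plate controls were enzyme without inhibitor for no effect and buffer without enzyme for full effect; nearly all actives have a fitted effect of over 40% in size; top concentration of the series not given in the record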
Target sequence (P25779 123-467 limits assumed): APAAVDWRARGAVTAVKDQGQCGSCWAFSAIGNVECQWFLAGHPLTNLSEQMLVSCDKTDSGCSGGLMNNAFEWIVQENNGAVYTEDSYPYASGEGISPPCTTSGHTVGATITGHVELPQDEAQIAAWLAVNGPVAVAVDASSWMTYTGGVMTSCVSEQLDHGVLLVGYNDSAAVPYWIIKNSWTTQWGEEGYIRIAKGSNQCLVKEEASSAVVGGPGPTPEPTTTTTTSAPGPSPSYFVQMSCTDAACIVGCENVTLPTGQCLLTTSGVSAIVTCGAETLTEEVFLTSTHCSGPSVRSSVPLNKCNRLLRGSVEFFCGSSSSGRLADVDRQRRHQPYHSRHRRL
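Detergent-free condition (0.00005% Triton X-100) in acetate buffer pH 5.5 with DTT. 1.5 nM enzyme and compound were pre-mixed 15 min, then 2 uM Z-FR-AMC substrate added; reaction progress from fluorescence change between first and third reads (60 s).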
Marburg entry inh = qHTS for inhibitors of binding or entry into cells for Marburg Virus | Marburg virus pseudotyped entry inhibition, cell reporter; control for the full effect not named in the record; about a third of the inactives were read at about 46 µM | Potency, µM (top dose mostly 37.8 µM), for inactives: at the highest dose activity change, negative = inhibition, hits mostly inhibitors | actives 1.8% (n = 300,000); active = well fitted inhibition curve with a large enough effect; inconclusive = small, poorly fitted or top-dose-only effect, or effect the other way; inactive = flat fitted curve, though single readings scatter; tested in HEK293 cells; about a fifth of its hits are not listed in these tables; further: on the % scale 0 is the no-effect control and ±100 the full control effect; luciferase read-out
LASV entry inh = qHTS for Inhibitors of binding or entry into cells for Lassa Virus; AID 540256, 2011; Lassa virus pseudotype entry inhibition, cell reporter; control for the full effect not named in the record; Potency, µM (top dose mostly 37.9 µM), for the others: at the highest dose activity change, negative = inhibition, hits mostly inhibitors; actives 1.2% (n = 300,000); active means well fitted inhibition curve with a large enough effect; inconclusive means small, poorly fitted or top-dose-only effect, or effect the other way; inactive means flat fitted curve, though single readings scatter; tested in HEK293 cells; further: on the % scale 0 is the no-effect control and ±100 the full control effect; nearly all actives have a fitted effect of over 50% in size; luciferase read-out
2A StopGo = High Throughput Screening for Foot and Mouth Disease Virus Antivirals; human cells with a luciferase reporter of 2A StopGo recoding; control for the full effect not named in the record; Potency, µM (series often up to 57.9 µM), inactives show top-dose signal change, negative = less light; actives 1.2% (n = 410,000); active = well fitted falling curve with a large enough effect; inconclusive = small, poorly fitted or top-dose-only effect; inactive = no such curve, though single readings can be large or run the other way; tested in HEK293T cells; further: on the % scale 0 is the no-effect control and ±100 the full control effect; nearly all actives have a fitted effect of over 45% in size; luciferase light after 4 h
SARS PLpro yeast = qHTS of Yeast-based Assay for SARS-CoV PLP | S. cerevisiae expressing SARS-CoV PLpro, growth rescue; control for the full effect not named in the record | actives 0.19% (n = 330,000) | Potency, µM (doses to about 32.9 µM), for inactives: at the top dose activity, positive = growth rescue; active means well fitted rising curve with a large enough effect; inconclusive means small, poorly fitted or top-dose-only effect; inactive means no such curve, though single readings can be large or run the other way; further: 0% is about no effect; nearly all actives have a fitted effect of over 55% in size; growth read by luminescence after 48 h
Cruzain Triton = qHTS Assay for Promiscuous and Specific Inhibitors of Cruzain (with detergent). AID 1478, 2009. purified cruzain, Z-FR-AMC fluorescence, 0.01% Triton. Potency, µM, without a hit: max response, negative = inhibition, usual class: inhibitors. Cruzipain (Trypanosoma cruzi), P25779. actives 0.43% (n = 200,000);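 further: plate controls were neutral wells for no effect and buffer without enzyme for full effect; nearly all actives have a fitted effect of over 40% in size; top concentration of the series not given in the record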
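Steps: dispense cruzain (1.5 nM final) in acetate buffer pH 5.5 with DTT and 0.01% Triton X-100; pin-transfer compounds; incubate 15 min RT; add Z-FR-AMC (2 uM final); read fluorescence every 30 s, using the 60 s intensity change.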
RE007 growth inh = qHTS Assay for Inhibitors of the HIV-1 protein Vpr. Potency, µM (titrated, usually from 92.2 µM), inactives show top-dose activity change, negative = less growth. actives 0.21% (n = 360,000). S. pombe RE007 Vpr strain, BacTiter-Glo ATP luminescence, 24 h; control for the full effect not named in the record. AID 651644, 2012; active = well fitted falling curve with a large enough effect; inconclusive = small, poorly fitted or top-dose-only effect; inactive = no such curve, though single readings can be large or run the other way;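 further: on the % scale 0 is the no-effect control and ±100 the full control effect; nearly all actives have a fitted effect of over 50% in size; the assay follows cell death caused by Vpr and the record does not say whether a fall means rescue or toxicity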
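Fission yeast RE007 carrying one integrated HIV-1 vpr copy, seeded at OD 0.01 in PMG+AL medium with 23 nL pinned compound. Grown 24 h at 30 degrees; viability read by BacTiter-Glo luminescence after 5 min.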
NS1 inh = qHTS Assay for Inhibitors of Influenza NS1 Protein Function. S. cerevisiae slowed by influenza A NS1, growth recovery by OD600. Potency, µM (highest dose often 46.1 µM), for inactives: top-dose activity, positive = more growth. actives 0.4% (n = 270,000). AID 2326, 2010; active means well fitted rising curve with a large enough effect; inconclusive means small, poorly fitted or top-dose-only effect; inactive means no such curve, though single readings can be large or run the other way; further: nearly all actives have a fitted effect of over 50% in size
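In this qHTS, NS1 from influenza A is expressed in budding yeast, where it slows growth. Cells are switched from glucose to 2% galactose medium (pH 6.0, -URA), treated with compound, and growth recovery is read at OD600.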
Active calls of the source: *; ? = inconclusive; nt = no result given; [ ] = remark or other dose. Unless noted, the call rests on the fitted dose curve; in most records, active means well fitted curve in the direction sought with a large enough effect; inconclusive means small, poorly fitted or top-dose-only effect, or another doubt; inactive means no such curve, though single readings can be large; an effect the other way counts as inactive or inconclusive. Potency means the concentration at half of the fitted maximal effect.

SMILES | Cruzain inh noDet | Marburg entry inh | LASV entry inh | 2A StopGo | SARS PLpro yeast | Cruzain Triton | RE007 growth inh | NS1 inh
CCOc1ccccc1N(C(=O)c1snc(C(N)=O)c1N)C(C(=O)NC1CCCC1)c1ccco1 (stereo not given) | -5% | ? | ? | 2% | -1% | -3.6% | -8% | -46%
Cc1ccccc1NC(=O)c1ccc2c(c1)C(=O)N(CC(C)C)C2=O | nt | 9%[46.1 µM] | 17%[46.1 µM] | 14% | 7% | nt | 3% | 2%
OCCC1CN(Cc2nc(-c3ccc(F)cc3)cs2)CCN1CCc1ccccc1 (stereo not given) | nt | nt | nt | -22% | -2% | nt | -5% | -6%
CCCCn1c(O)c(/C(C)=N/NC(=O)Nc2ccccc2)c(=O)[nH]c1=O | nt | nt | nt | 3% | -1% | nt | 9% | -8%
COc1cccc(/C=N/NC(=O)CO/N=C(\C)c2cccs2)c1OC | -4% | -8% | 20% | nt | 0% | -4.1% | 2% | -14%
O=C(Nc1ncc(Cc2cccc(C(F)(F)F)c2)s1)c1ccc(-c2cccc([N+](=O)[O-])c2)o1 | 10µM* | 16µM* | ? | 0% | 14% | -4.5% | -5% | 13%
O=C1CC(CSc2ccc(Cl)cc2)=NN1 | nt | nt | nt | -21% | 10% | nt | 3% | ?
CCCCOc1ccc(CN2CCSCC2)cc1 | nt | nt | nt | 26% | -2% | nt | 2% | -12%
Cc1nn(C)c(C)c1NS(=O)(=O)c1ccc(N2CCCC2=O)cc1 | nt | ? | ? | ? | 0% | nt | 15% | 6%
COc1ccc(N(CC(=O)NCCSCc2c(F)cccc2Cl)S(C)(=O)=O)cc1OC | 30% | 2% | -2% | -16% | 2% | 2.1% | 11% | 6%
O=C(CC(c1ccco1)C1CCCCC1=O)c1ccco1 (stereo not given) | ? | 2% | 10% | -4% | 13% | ? | 12% | -7%
Cc1csc(NC(=O)[C@@H]2CCCN2C(=O)c2cccs2)n1 | nt | 9%[46.1 µM] | 16%[46.1 µM] | -11% | -5% | nt | 23% | nt
O=C(NCc1nc2ccccc2[nH]1)C1=C[C@H](c2ccccc2)C[C@H](OCCCCO)O1 | nt | nt | nt | -13% | 2% | nt | -2% | -7%
O=C(CCCn1cc([N+](=O)[O-])cn1)Nc1cccnc1 | nt | -18% | -3% | -4% | -1% | nt | 1% | -5%
Cc1ccc(SC(=O)COc2ccccc2C)cc1 | -4% | -5% | -6% | -28% | -3% | -5.3% | -24% | -7%
Cc1cc(C(F)(F)F)nc2c(Cl)c(C(C)(C)C)nn12 | nt | -4%[46.1 µM] | 4% | -9% | 0% | nt | 61% | -1%
COc1ccc(-c2oc3cc(OC(C)=O)cc(OC(C)=O)c3c(=O)c2OC)cc1 | nt | -14%[46.1 µM] | ? | 27% | nt | nt | 12% | nt
O=C(O)C1CCCCC1C(=O)Nc1cc(Cl)ccc1Cl (stereo not given) | 3% | 3% | 1% | -8% | -2% | -1.3% | 3% | 3%
CC(C)c1ccc(OCC(=O)NN2C(=O)c3ccccc3C2=O)c(Br)c1 | nt | nt | nt | 14% | -9% | nt | -1% | 14%
O=C(COc1cc2oc(=O)c3c(c2cc1Cl)CCC3)NCc1ccccn1 | nt | nt | nt | -7% | 4% | nt | -12% | 7%
O=C(CCNC(=O)c1ccc(Cl)cc1)Nc1ccncc1 | nt | -6% | -2% | -8% | nt | nt | 3% | nt
CCOC(=O)C1=C(c2ccccc2)NC(=O)NC1c1ccc(OC)c(OC)c1 (stereo not given) | nt | 28%[46.1 µM] | 15%[46.1 µM] | 12% | 2% | nt | 10% | nt
CSCCC(NS(=O)(=O)/C=C/c1ccccc1)C(=O)NCCc1ccc(S(N)(=O)=O)cc1 (stereo not given) | nt | -26%[46.1 µM] | ? | -13% | -1% | nt | 10% | 7%
Cc1ccc2[nH]c3c(=O)n(CC(=O)NC(C)C)ncc3c2c1 | -7% | nt | 5%[46.1 µM] | 1% | nt | 7.2% | nt | nt
Cc1cc(C(C)(C)C)oc1C(=O)Nc1ccc(CC(=O)O)cc1 | 1% | 6% | -2% | -24% | 2% | 1.0% | 16% | -64%
Cc1ccc(NC(=O)CSCC(=O)NCc2ccco2)cc1 | nt | 2%[46.1 µM] | -5% | 3% | -2% | nt | -28% | nt
CCC1(C)Cc2c(sc3nc(SC)n(Cc4ccccc4)c(=O)c23)CO1 (stereo not given) | -18% | 4% | -16% | 23% | 3% | -1.4% | 1% | 6%
C=CCSc1nccc(=O)[nH]1 | -2% | 12% | ? | 6% | 11% | 1.4% | 0% | 11%
COc1ccc(CNC(=O)c2ccc3c(c2)nc2n3CCCCC2)c(OC)c1 | -12% | nt | -5%[46.1 µM] | 43%[activator] | nt | -1.9% | nt | nt
Cc1ccc(-c2nnc3sc(-c4ccncc4)nn23)cc1 | 10% | 5.8µM* | 15% | 2% | 3% | -1.3% | 11% | -20%
COc1cc(S(=O)(=O)n2nnc3ccccc32)c(OC)cc1Cl | -16% | ? | 0% | 36%[activator] | 4% | -8.6% | 2% | -35%
Cc1ccc(-c2noc(-c3ccc(NCC4CCCO4)c([N+](=O)[O-])c3)n2)cc1 (stereo not given) | -4% | 26%[46.1 µM] | 5%[46.1 µM] | -2% | nt | -3.8% | nt | nt
CC(C)Oc1ccc(CNC(=O)c2ccc3nc(N4CCOCC4)sc3c2)cc1 | nt | nt | nt | 1% | -1% | nt | -9% | 6%
O=C(/C=C/Nc1ccccc1)C(F)(F)F | nt | ? | 5% | -15% | -1% | nt | 8% | nt
CN(C)CCN(Cc1ccco1)S(=O)(=O)c1csc(C(N)=O)c1 | nt | nt | nt | 19% | 10% | nt | 2% | -10%
Cc1ccc(NC(=O)Nc2ccc3c(c2)OCO3)c(Br)c1 | nt | -20%[46.1 µM] | 0%[46.1 µM] | 19% | 2% | nt | -8% | -1%
O=c1c2ccccc2ncn1Cc1ccc(Cl)cc1 | nt | 18%[46.1 µM] | 15%[46.1 µM] | 1% | -4% | nt | -2% | nt
Cc1[nH]c2ccccc2c1C(=O)CN1CC(C)OC(C)C1 (stereo not given) | nt | 3% | 30% | -11% | -1% | nt | 4% | -1%
Cc1ccccc1C(=O)Nc1nnc2n1CCS2 | -9% | nt | -3%[46.1 µM] | 74%[activator] | nt | -0.2% | nt | nt
COc1ccc(N2CCN(C(=O)NC3CCCCC3)CC2)cc1 | -4% | 17%[46.1 µM] | -11% | 0% | 12% | -3.4% | 6% | 10%
COc1ccc2nc(N/C(=N/S(=O)(=O)c3cccs3)c3ccccc3Cl)sc2c1 | nt | 29%[46.1 µM] | 2%[46.1 µM] | 2% | -1% | nt | -1% | -25%
COc1cc2c(cc1OC)C(c1cc3cc4c(cc3[nH]c1=O)OCO4)N(C(=O)C1CC1)CC2 (stereo not given) | 13% | ? | ? | -2% | 9% | -3.8% | 3% | 1%
CCOc1ccc(N(C(=O)c2ccc(S(=O)(=O)N3CCCC3)cc2)C2C=CS(=O)(=O)C2)cc1 (stereo not given) | nt | 1% | -18% | -21% | -5% | nt | 3% | -10%
COc1ccc2nc(-c3ccc(Cl)cc3)cc(C(=O)O)c2c1 | nt | nt | nt | -2% | -1% | nt | -5% | -42%
COc1ccc(CNC(=O)C(=O)Nc2ccc(OC)cc2OC)cc1 | -11% | nt | 0%[46.1 µM] | -6% | nt | -1.7% | nt | nt
CC1CCCC(C)N1C(=O)COC(=O)/C=C/c1ccco1 (stereo not given) | nt | 29% | ? | 71%[activator] | -1% | nt | 15% | nt
O=C(CN1CCN(S(=O)(=O)N2CCCCCC2)CC1)Nc1ccc(Br)cc1 | nt | -1% | -9% | -13% | -4% | nt | 20% | -19%
O=C(Nc1ccc(N2CCCC2)c(Cl)c1)c1cccc(-c2cc3ccccc3oc2=O)c1 | 4µM* | ? | 2% | -6% | -7% | -2.1% | -11% | ?
O=C(CN1C(=O)COc2ccc(Cl)cc21)Nc1ccc(N2CCOCC2)cc1 | nt | 12% | 3% | -8% | -4% | nt | 2% | -2%
CN(CC(=O)Nc1c(Cl)cccc1Cl)C(=O)c1ccc2nc[nH]c2c1 | nt | 5%[46.1 µM] | -26% | -5% | nt | nt | -4% | nt
Next results
SMILES | Cruzain inh noDet | Marburg entry inh | LASV entry inh | 2A StopGo | SARS PLpro yeast | Cruzain Triton | RE007 growth inh | NS1 inh
CCOC(=O)c1nc2cc3n(c(CC(C)C)c-2c1C)CC(C)=C3C | 2% | ? | -14% | -27% | 4% | -6.0% | 4% | 14%
Cc1ccc(OCc2nnc(NC(=O)Cc3cccs3)s2)cc1 | ? | 2% | nt | nt | -3% | 3.9% | nt | 5%
CCCN(C(=O)Cn1cnc2onc(-c3ccc(F)cc3)c2c1=O)c1cccc(Cl)c1 | 10% | nt | -2%[46.1 µM] | -20% | nt | 3.3% | nt | nt
O=C(Nc1cccc(S(=O)(=O)N2CCOCC2)c1)C1CCCCN1S(=O)(=O)c1ccccc1 (stereo not given) | nt | ? | -13% | ? | 3% | nt | 0% | nt
Cc1cc2c(cc1C)N(Cc1ccc(Cl)cc1)C1=NCCCN12 | nt | ? | ? | ? | nt | nt | -6% | nt
O=C1c2ccccc2-c2c1cccc2C(=O)N1CCCCC1 | -4% | 2% | 7% | 4% | 9% | -1.7% | 13% | -22%
O=c1[nH]c(SCc2nc3c(cnn3-c3ccccc3)c(=O)[nH]2)nc2ccccc12 | 0% | 1µM* | 0.71µM* | 9% | -6% | 9.0% | 3% | 2%
O=C(Nc1cccc2c1CCCC2)c1ccc(F)cc1 | nt | 16% | 7% | 12% | nt | nt | 5% | nt
CC(=O)N1CC(C)Sc2ccc(S(=O)(=O)NCCc3cccc(C)c3)cc21 (stereo not given) | nt | nt | nt | -9% | -8% | nt | 9% | -10%
COc1ccc(C(=O)NC(NC(=O)c2ccc(OC)cc2)c2ccccc2F)cc1 | nt | 0%[46.1 µM] | -7% | -11% | 0% | nt | -5% | -1%
CC(C)(C)c1[nH]nc2c1C(Cc1ccccc1)C(C#N)=C(N)O2 (stereo not given) | -11% | ? | 26% | ? | 4% | -1.0% | 7% | -1%
